# SARS PLpro yeast: SARS-CoV PLP inhibition in yeast; S. cerevisiae expressing SARS-CoV PLpro, growth rescue; control for the full effect not named in the record; Potency, µM (doses to about 32.9 µM), for inactives: at the top dose activity, positive = growth rescue; hit rate 0.19% among 330,000; note: 0% is about no effect; nearly all actives have a fitted effect of over 55% in size; growth read by luminescence after 48 h
# LASV entry inh: blocks Lassa virus binding to or entry into cells; AID 540256; hit rate 1.2% among 300,000; Lassa virus pseudotype entry inhibition, cell reporter; control for the full effect not named in the record; Potency, µM (titrated, usually from 37.9 µM), inactives show at the top dose activity change, negative = inhibition, usual class: inhibitors; active means well fitted inhibition curve with a large enough effect; inconclusive means small, poorly fitted or top-dose-only effect, or effect the other way; inactive means flat fitted curve, though single readings scatter; tested in HEK293 cells; note: % is set by controls: 0 for no effect and ±100 for the full control effect; nearly all actives have a fitted effect of over 50% in size; luciferase read-out
# Cruzain Triton: inhibitors of Trypanosoma cruzi cruzain with detergent; Potency, µM, for inactives: max response, negative = inhibition, hits mostly inhibitors; hit rate 0.43% among 200,000; P25779; purified cruzain, Z-FR-AMC fluorescence, 0.01% Triton; active = well fitted curve in the direction sought with a large enough effect; inconclusive = small, poorly fitted or top-dose-only effect, or another doubt; inactive = no such curve, though single readings can be large; an effect the other way counts as inactive or inconclusive;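 note: plate controls were neutral wells for no effect and buffer without enzyme for full effect; nearly all actives have a fitted effect of over 40% in size; top concentration of the series not given in the record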
# Target sequence (P25779 123-467 limits assumed): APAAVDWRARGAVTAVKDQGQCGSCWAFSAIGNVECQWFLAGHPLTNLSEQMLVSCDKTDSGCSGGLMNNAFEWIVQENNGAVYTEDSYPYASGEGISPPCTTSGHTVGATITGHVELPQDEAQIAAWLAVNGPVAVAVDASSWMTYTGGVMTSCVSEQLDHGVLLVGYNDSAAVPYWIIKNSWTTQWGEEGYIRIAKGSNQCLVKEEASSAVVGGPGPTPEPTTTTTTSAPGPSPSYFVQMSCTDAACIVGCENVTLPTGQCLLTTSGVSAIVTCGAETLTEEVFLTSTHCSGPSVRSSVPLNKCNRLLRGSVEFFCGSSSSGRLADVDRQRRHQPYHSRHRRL
#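 Read-out: AMC fluorescence (360 nm excitation, 450 nm emission), four reads over 2 min, first-to-third difference used. Conditions: cruzain 1.5 nM, Z-FR-AMC 2 uM, pH 5.5 acetate, 5 mM DTT, 0.01% Triton X-100.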
# StopGo reporter: FMDV 2A StopGo reporter, luciferase signal; AID 1159524; Potency, µM (highest dose often 57.9 µM), for inactives: top-dose signal change, negative = less light; human cells with a luciferase reporter of 2A StopGo recoding; control for the full effect not named in the record; hit rate 1.2% among 410,000; active = well fitted falling curve with a large enough effect; inconclusive = small, poorly fitted or top-dose-only effect; inactive = no such curve, though single readings can be large or run the other way; tested in HEK293T cells; note: % is set by controls: 0 for no effect and ±100 for the full control effect; nearly all actives have a fitted effect of over 45% in size; luciferase light after 4 h
# MARV entry inh: inhibitors of Marburg virus binding or cell entry | hit rate 1.8% among 300,000 | Marburg virus pseudotyped entry inhibition, cell reporter; control for the full effect not named in the record; about a third of the inactives were read at about 46 µM | Potency, µM (doses to about 37.8 µM), without a hit: top-dose activity change, negative = inhibition, actives largely listed as inhibitors; active = well fitted inhibition curve with a large enough effect; inconclusive = small, poorly fitted or top-dose-only effect, or effect the other way; inactive = flat fitted curve, though single readings scatter; tested in HEK293 cells; about a fifth of its hits are not listed in these tables; note: % is set by controls: 0 for no effect and ±100 for the full control effect; luciferase read-out
# NS1 function inh: inhibitors of influenza NS1 protein function | AID 2326 | hit rate 0.4% among 270,000 | Potency, µM (doses to about 46.1 µM), for the others: at the highest dose activity, positive = more growth | S. cerevisiae slowed by influenza A NS1, growth recovery by OD600; note: actives are rising curves; nearly all actives have a fitted effect of over 50% in size
#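 In this qHTS, NS1 from influenza A is expressed in budding yeast, where it slows growth. Cells are switched from glucose to 2% galactose medium (pH 6.0, -URA), treated with compound, and growth recovery is read at OD600.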
# RE007 growth inh: less growth of the S. pombe RE007 Vpr strain; S. pombe RE007 Vpr strain, BacTiter-Glo ATP luminescence, 24 h; control for the full effect not named in the record; Potency, µM (highest dose often 92.2 µM), for inactives: at the highest dose activity change, negative = less growth; hit rate 0.21% among 360,000; AID 651644; active = well fitted falling curve with a large enough effect; inconclusive = small, poorly fitted or top-dose-only effect; inactive = no such curve, though single readings can be large or run the other way;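 note: % is set by controls: 0 for no effect and ±100 for the full control effect; nearly all actives have a fitted effect of over 50% in size; the assay follows cell death caused by Vpr and the record does not say whether a fall means rescue or toxicity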
#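 Fission yeast RE007 carrying one integrated HIV-1 vpr copy, seeded at OD 0.01 in PMG+AL medium with 23 nL pinned compound. Grown 24 h at 30 degrees; viability read by BacTiter-Glo luminescence after 5 min.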
# Cruzain noTriton: blocks cruzain activity in detergent-free assay; P25779; purified cruzain, Z-FR-AMC fluorescence, no detergent; Potency, µM, for the others: max response, negative = inhibition, most hits filed as inhibitors; hit rate 2.3% among 200,000; AID 1476; active = well fitted curve in the direction sought with a large enough effect; inconclusive = small, poorly fitted or top-dose-only effect, or another doubt; inactive = no such curve, though single readings can be large; an effect the other way counts as inactive or inconclusive;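 note: plate controls were enzyme without inhibitor for no effect and buffer without enzyme for full effect; nearly all actives have a fitted effect of over 40% in size; top concentration of the series not given in the record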
#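 Detergent-free condition (0.00005% Triton X-100) in acetate buffer pH 5.5 with DTT. 1.5 nM enzyme and compound were pre-mixed 15 min, then 2 uM Z-FR-AMC substrate added; reaction progress from fluorescence change between first and third reads (60 s).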
# * hit, by the source's call; ? = inconclusive; . = not tested or not shown; [ ] = remark or other dose. Unless noted, calls come from the whole dose curve; as a rule, active means well fitted rising curve with a large enough effect; inconclusive means small, poorly fitted or top-dose-only effect; inactive means no such curve, though single readings can be large or run the other way. Potency is the fitted concentration of half-maximal effect.
SMILES,SARS PLpro yeast,LASV entry inh,Cruzain Triton,StopGo reporter,MARV entry inh,NS1 function inh,RE007 growth inh,Cruzain noTriton
O=c1[nH]c(O)c(/C=C2\C=Nc3ccc(OCc4ccccc4)cc32)c(=O)[nH]1,18.9%,-20.5%[46.1 µM],.,-22.0%,?,-8.2%,-5.7%,.
CCSc1nc2c(sc3ccccc32)c(=O)n1C(C)C,15.0%,4.0%,-4.0%,-24.5%,-28.8%,-17.0%,-14.4%,-3.2%
CN1CCN(NC(=O)c2cc(S(=O)(=O)Nc3ccc(Cl)cc3)ccc2Cl)CC1,0.9%,9.8%,.,-10.2%,-15.5%[46.1 µM],2.6%,-5.1%,.
CN(Cc1cn(C)nc1-c1cccc(Cl)c1)C1CCOCC1,1.4%,.,.,66.7%[activator],.,-2.0%,-5.0%,.
O=C(COC(=O)c1cc(Br)ccc1O)Nc1cccnc1Cl,-1.2%,-0.8%,.,16.6%,27.4%,.,8.2%,.
c1cc(CNC2=NCCCCC2)ccn1,3.3%,-12.4%,4.2%,-0.5%,3.2%,1.8%,4.9%,1.4%
O=C(Nc1ccccn1)c1ccc(Cl)s1,0.1%,.,.,32.9%[activator],.,1.3%,?,.
Cn1c(-c2ccc3c(c2)OCO3)cnc1NCc1ccccc1Cl,-1.5%,-4.1%,.,66.3%[activator],-17.9%,-4.0%,-3.6%,.
CC1(C)CC(=O)C2=C(C1)N(Cc1ccccc1)C(=O)C2(O)C(F)(F)F (stereo not drawn),-3.1%,14.9%,3.9%,4.2%,0.4%,4.2%,5.3%,-2.0%
O=C(c1cc(-c2ccccc2)on1)N1CCN(C(=O)c2ccco2)CC1,-2.6%,1.7%,-2.3%,.,27.2%,-28.1%,13.1%,-1.8%
CCCNC(=O)c1cc2c3ccccc3n(C)c2s1,-18.9%,?,-17.9%,3.6%,-21.9%,-26.3%,-27.7%,-2.5%
CCOc1cccc(NC(=O)C2CC(=O)N(C)C(=Nc3ccccc3)S2)c1 (stereo not drawn),0.9%,?,-5.1%,.,?,-44.9%,5.0%,16.4%
Cc1ccc(NC(=O)CSc2nc(-c3ccccc3Cl)nc3cc(=O)[nH]n23)c(C)c1,.,4.0%[46.1 µM],-1.7%,-14.9%,.,.,.,-3.3%
CCOc1ccc(-n2nc(CO)c(C(=O)NCc3cccc(OC)c3)n2)cc1,.,?,-3.2%,21.9%,13.0%[46.1 µM],.,.,13.9%
NC(N)=Nc1nc2ccc(Cl)cc2c(=O)[nH]1,-1.0%,11.8%[46.1 µM],.,13.9%,9.2%[46.1 µM],10.4%,-0.4%,.
Cc1ccc(S(=O)(=O)N2CCCC2)s1,-2.5%,0.7%[46.1 µM],.,-6.4%,?,6.0%,16.2%,.
N#CCSc1nn(-c2ccc(F)cc2)c(=S)s1,0.2%,9.4%,.,-19.0%,23.2%,.,-16.4%,.
CCOC(=O)CSC1=C(C#N)C(c2ccc(C)cc2)C(C(=O)OC)C(=O)N1 (stereo not drawn),2.8%,-28.6%,0.9%,-21.6%,-15.2%[46.1 µM],-0.1%,16.9%,0.3%
COC1(c2ccccc2)NC(=S)NN=C1c1ccccc1 (stereo not drawn),9.7%,-1.4%,-14.4%,-24.3%,3.3%,-2.1%,-4.0%,-6.2%
Cc1cccc(C)c1NC(=O)C1CCCN1C(=O)NCc1ccccc1 (stereo not drawn),-4.0%,.,.,10.1%,1.6%[46.1 µM],-5.7%,-10.8%,.
CCOc1ccccc1Nc1sc(C(=O)c2ccccc2)c(N)c1C(=O)Nc1ccc(F)cc1,.,4.1%[46.1 µM],2.9%,-27.5%,.,.,.,?
Cc1ccc(N2C(=O)N(CC(=O)Nc3c(C)cc(C)cc3Cl)C(=O)C2C)cc1 (stereo not drawn),7.6%,-14.8%,.,-18.4%,-0.8%[46.1 µM],.,-5.8%,.
c1ccc2c(c1)CC1CNCc3cccc(c31)S2 (stereo not drawn),-15.2%,?,0.0%,-7.4%,?,-12.4%,-14.0%,-7.7%
O=C(/C=C/c1ccoc1)c1ccccc1O,-26.1%,0.6%,-5.3%,-3.5%,-2.6%,-4.2%,-3.8%,3.5%
COc1ccc(CSc2n[nH]c(C)n2)cc1Br,-35.3%,26.5%,7.4%,.,9.7%,-113.3%,-0.8%,14.8%
CCOc1ccc(/C(O)=C2\C(=O)C(=O)N(c3ccc(OC)cc3)C2c2ccccc2[N+](=O)[O-])cc1 (stereo not drawn),0.2%,?,.,30.9%[activator],?,13.7%,-4.0%,.
COc1ccc(N2C(=O)CC(N3CCC(O)(c4cccc(C(F)(F)F)c4)CC3)C2=O)cc1 (stereo not drawn),-48.5%,1.5%,0.4%,?,1.6%[46.1 µM],-48.8%,31.6µM*,5.6%
COC(=O)c1c(NC(=O)C2CC2)sc(C(=O)Nc2ccccc2)c1C,-0.4%,-0.1%,.,35.5%[activator],?,.,3.1%,.
Cc1ccccc1OCCSc1nc2ncnc(N)c2[nH]1,-0.3%,0.4%,.,-28.7%,-15.5%[46.1 µM],-1.1%,8.2%,.
CC(=O)c1c(N2CCN(C(=O)c3ccco3)CC2)nc(=S)n(-c2ccccc2)c1C,-0.2%,13.7%,-1.3%,0.0%,-8.6%,4.5%,-12.1%,-9.5%
CC1(c2nnc(-c3ccc(Cl)cc3)o2)CC(c2ccc(Cl)cc2)=NO1 (stereo not drawn),-1.4%,.,.,-2.6%,.,6.1%,4.6%,.
CNC(=O)COC(=O)[C@@H](Nc1ccc(S(=O)(=O)N2CCOCC2)cc1[N+](=O)[O-])C(C)C,-4.5%,1.8%,-3.1%,-17.3%,?,-4.5%,-16.5%,-1.2%
CCc1nc(SCc2ccc(OC)cc2)n[nH]1,0.8%,.,.,74.6%[activator],.,20.1%,2.8%,.
CCn1c(C)nc2cc(C(=O)NN=Cc3ccccc3OC(F)F)ccc21,-9.4%,18.0%,.,19.9%,-0.9%,.,-1.0%,.
Cc1ccc(C2CC(=O)NC3=C2C(=O)CCC3)cc1Br (stereo not drawn),-1.3%,-3.1%,2.8%,-13.3%,-6.4%[46.1 µM],2.9%,-0.3%,-4.1%
COc1ccc(C(=O)O)cc1S(=O)(=O)N(C)CCc1cccnc1,1.9%,4.0%,5.6%,1.2%,-0.4%,-0.2%,-11.4%,-9.6%
C/C(=N\NC(=O)c1cccc(S(=O)(=O)Nc2ccc(C)cc2C)c1)c1ccncc1,-0.6%,1.1%,.,2.0%,-1.3%,.,-4.2%,.
Cc1ccc(N2CCN(C3=NC(=O)C(Cc4ccccc4)S3)CC2)cc1 (stereo not drawn),1.1%,-5.6%,28.2µM*,-7.1%,27.7%,-9.8%,7.6%,-4.0%
COc1ccc([N+](=O)[O-])cc1NC(=O)CSc1nc(C)c(C)c(C)n1,24.1%,0.5%,-3.3%,-19.7%,2.6%,1.8%,7.0%,-8.7%
O=C(COc1ccc(Br)cc1)N1CCN(c2ccccc2)CC1,-6.5%,-7.3%,-2.5%,?,3.7%,-10.7%,-8.4%,-1.3%
CN=C(Cc1ccccc1)C1=C(O)CC(C)(C)CC1=O,0.2%,.,.,-13.7%,-6.8%[46.1 µM],.,-15.3%,.
Cc1nn(-c2ccccc2)c(Cl)c1/C=N/NC(=O)CNC(=O)c1ccccc1Cl,4.8%,?,-4.2%,-19.0%,?,1.2%,4.0%,0.8%
Cc1ccccc1Cn1cc(S(=O)(=O)c2ccc(C(C)C)cc2)c(=O)c2cc3c(cc21)OCO3,.,14.4%,.,-13.7%,-7.8%[46.1 µM],.,-1.9%,.
CC(C)N(C)C(=O)c1ccc(OC2CCN(CCc3ccccc3)CC2)cc1,0.3%,.,.,-20.9%,.,0.5%,-9.4%,.
CCOc1ccc(S(=O)(=O)N2CCN(Cc3ccco3)CC2)cc1,-4.4%,14.1%,.,-6.7%,16.2%,2.3%,6.8%,.
CCn1c(-c2cc3c(C(F)(F)F)nn(C)c3s2)n[nH]c1=S,1.0%,-1.6%,0.3%,0.0%,-25.9%,-9.0%,9.4%,-12.8%
Cc1ccccc1OCC(=O)NCc1ccccc1,10.1%,-21.5%,.,35.0%[activator],-6.8%[46.1 µM],.,-1.6%,.
COc1ccc(CNc2nc(-c3ccccc3)nn2C(=O)c2cccs2)cc1,4.0%,?,-0.8%,5.5%,10.7%,-3.8%,12.1%,?
NS(=O)(=O)c1ccc(NC(=O)CSc2ncn[nH]2)cc1,-2.5%,-2.8%[46.1 µM],.,8.9%,16.3%[46.1 µM],.,6.0%,.
COc1ccc(N(CC(=O)N2CCc3ccccc3C2)S(C)(=O)=O)cc1Cl,15.9%,.,.,7.4%,.,12.8%,2.4%,.
COc1ccc(C(=O)Nc2ccc(C(=O)OCc3cc(=O)n4nc(C(C)C)sc4n3)cc2)cc1,.,?,0.8%,28.3%,.,.,.,-11.6%
CSc1ncccc1C(=O)NC1CC(C)(C)Cc2c1cnn2-c1ccccc1C (stereo not drawn),-5.9%,?,.,-8.8%,?,8.8%,-9.9%,.
CCOCCOC(=O)COc1ccc(N2C(=O)c3ccccc3C2=O)cc1,-2.3%,.,-0.6%,.,2.9%,-56.8%,.,-2.2%
Cn1cnnc1SCC(=O)Nc1ccc(C#N)cc1,.,-0.1%[46.1 µM],0.5%,-0.3%,-0.6%[46.1 µM],.,.,1.1%
CCn1nnc2cc(C(=O)Nc3cc(OC)cc(OC)c3)ccc21,-2.0%,?,.,25.8%,-2.6%,.,5.9%,.
CCCCNC(=O)C1CCN(Cc2nc(-c3ccc(OC)c(OC)c3)oc2C)CC1,.,3.1%[46.1 µM],2.7%,-13.8%,3.4%[46.1 µM],.,.,-9.2%

# High-throughput results deposited in PubChem by National Center for Advancing Translational Sciences (NCATS).
